# From PubChem BioAssay
# HTT promoter inh: inhibitors of huntingtin promoter activity. HEK293 HTT promoter firefly luciferase reporter (activity 0% = vehicle and -100% = no light), 24 h. Potency, µM (highest dose often 57.5 µM), for inactives: top-dose activity change, negative = inhibition, usual class: inhibitors. 48,000 tested, 0.93% active; active means well fitted inhibition curve with a large enough effect; inconclusive means small, poorly fitted or top-dose-only effect; inactive means no such curve, though single readings can be large or run the other way; further: nearly all actives have a fitted effect of over 50% in size
#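 HEK293 Fluc reporter, 2,500 cells/well, 24 h pre-culture; cpds up to 57.5 uM final, 24 h 37 degrees C; Dual-Glo, 10 min RT; normalized vehicle = 0%, zero RLU = -100%.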
# PMP22 txn: PMP22 gene transcription modulation; Potency, µM (titrated, usually from 57.5 µM), for the others: at the highest dose activity change, negative = inhibition, hits mostly inhibitors; AID 1508649; S16 Pmp22-F2sN Schwann cells (luciferase reporters placed in the Pmp22 gene), FLuc/NLuc coincidence luminescence, 24 h; 43,000 tested, 2% active; active = clear falling dose curves in both reporters; inconclusive = both reporters move, but less clearly or upward; inactive = either reporter flat; the % is the NLuc reporter signal; further: on the % scale 0 is the no-effect control and ±100 the full control effect; some results filed as inactive show a strong effect at the top dose
#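 Transcriptional readout in edited S16(c9) cells: two luciferases reported from the Pmp22 locus, measured in turn after 24 h compound incubation.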
# The depositor's hits bear a star; ? = inconclusive; / = no result given; [ ] = remark or other dose. Potency means the concentration at half of the fitted maximal effect.
No.	compound	HTT promoter inh	PMP22 txn
1	Cc1cc(Cl)ccc1OCC(=O)Nc1c(Cl)ccc2nsnc12	-32.0%	?
2	CCc1ccc(NS(=O)(=O)c2ccc3[nH]cc(C(=O)N(C)Cc4ccco4)c(=O)c3c2)cc1	4.0%	10.3%
3	CCc1cccc(C)c1NC(=O)Cn1nnc(-c2nc(-c3ccccc3F)no2)c1N	-5.4%	-6.0%
4	O=C(Cn1c(=O)n(-c2ccccc2)c(=O)c2c3c(sc21)CCCC3)Nc1cccc(F)c1	-9.7%	?
5	Cc1ccc(C(=O)NCC(c2ccco2)S(=O)(=O)c2cccs2)cc1C (stereo unspecified)	-18.0%	-52.5%
6	CC(=O)c1ccc(NC(=O)c2cnc(N3CCCC3)nc2C)cc1	-13.8%	-13.4%
7	COc1ccc(CCNC(=O)CCCn2c(=O)c3ccccc3n(Cc3ccc(F)cc3Cl)c2=O)cc1OC	-2.6%	-3.9%
8	COc1cccc2cc(-c3nc(Cl)c4c5c(sc4n3)CC(C)CC5)c(=O)oc12 (stereo unspecified)	-10.3%	4.3%
9	CC(=O)c1cc(-c2ccccc2)n(CC(=O)Nc2ccc(C)cc2C)c1C	?	-2.5%
10	Cc1ccc(NS(=O)(=O)c2cc(-c3cc(C)no3)ccc2C)c(Cl)c1	?	?
11	CCCc1cc(=O)n2[nH]c(NCc3ccc(CC)cc3)nc2n1	-21.1%	2.6%
12	Cc1ccc(NS(=O)(=O)c2ccc(NC(=O)N3CCCC3)cc2)cc1C	-19.3%	-15.2%
13	O=C(CSc1nnc(-c2ccccc2)c(-c2ccccc2)n1)NC1CCCCC1	-30.3%	14.1%
14	Cc1ccc(CNC(=O)C(=O)NCC(c2cccnc2)N2CCN(c3ccc(F)cc3)CC2)cc1 (stereo unspecified)	?	?
15	CC(=O)c1cccc(NC(=O)CCCN2C(=O)COc3ccc(C)cc32)c1	?	?
16	CC(=O)c1ccc(NC(=O)NCCc2c[nH]c3ccccc23)cc1	18.7%	-20.4%
17	CCOc1ccccc1NC(=O)CSc1nnc2[nH]c(=O)cc(-c3ccccc3)n12	-4.3%	-45.6%
18	CCOc1ccc(-n2c(SCc3nc(-c4ccccc4C)no3)nnc2-c2ccccc2)cc1	1.8%	0.8%
19	Cc1ccc(S(=O)(=O)c2c(O)cc(C)c(NS(=O)(=O)c3ccc(Cl)cc3)c2C)cc1	?	-15.2%
20	Cn1c(=O)c2c(nc(NCCCCO)n2Cc2ccccc2Cl)n(C)c1=O	-15.4%	-21.9%

# Remaining list, next part
No.	compound	HTT promoter inh	PMP22 txn
21	COCCCNC(=O)CN1C(=O)COc2ccc(S(=O)(=O)N3CCCCCC3)cc21	-15.6%	-9.6%
22	CCOc1ccc(CNC(=O)Cn2cc3c(n2)-c2c(oc(C(=O)N4CCOCC4)c2C)CC3)cc1	?	-14.6%
23	Cc1ccc(NC(=O)Cc2csc(C)n2)c(C)c1	12.3%	1.8%
24	CC(C)(C)OC(=O)N1CCC(c2c(C(=O)NC3CCCCC3)cnn2-c2cccc(Cl)c2)CC1	?	?
25	CCCCNC(=O)CCCN1C(=O)c2ccccc2Sc2ncccc21	-6.8%	8.1%
26	CCOc1ccc(CNc2cc(C)nc3nc(-c4cccc(C)c4)nn23)cc1OC	10.4%	?
27	O=C(Cc1ccccc1)Nc1sc2c(c1C(=O)Nc1cccc(Cl)c1)CCCCC2	-5.6%	-122.0%
28	O=C(Cn1c(=O)c2cc(Cl)ccc2n2nncc12)Nc1ccccc1	-8.0%	-26.2%
29	CC1=C(c2ccc(C(C)C)cc2)S(=O)(=O)N=C1N1CCC(C(=O)NCc2ccc(C)o2)CC1	-20.8%	-8.8%
30	Cc1c(C(=O)N(Cc2ccc(N(C)C)cc2)Cc2ccco2)oc2cc(Br)ccc12	-11.7%	?
31	CCC(=O)NC1CC(=O)N(c2ccc3c(c2)OCCO3)C1 (stereo unspecified)	5.4%	2.6%
32	CCN[C@@H]1C[C@H](N)[C@@H](OC2OC(CN)=CCC2N)[C@H](O)[C@H]1O[C@H]1OC[C@](C)(O)[C@H](NC)[C@H]1O (stereo partly specified)	4.2%[0.739 µM]	/
33	Oc1ccc([C@@H]2Oc3ccc(O)cc3[C@@H]3CCC[C@@H]32)cc1	?	/
34	COc1ccc(CCNC(=O)c2cccc(-n3c(C)nc4cccnc43)c2)cc1OC	-9.9%	-41.3%
35	O=C(CCC(=O)N1CC2CCCN2c2ccccc21)NCc1cccc(Cl)c1 (stereo unspecified)	-23.4%	?
36	CCN(CC)S(=O)(=O)c1ccc2c(c1)N(CC(=O)NCCc1ccc(OC)c(OC)c1)C(=O)CO2	-15.3%	-29.0%
37	CCc1ccc2oc(C(=O)NCc3ccccc3)cc(=O)c2c1	36.1%[activator][11.5 µM]	-3.0%
38	Cc1cccn2c(=O)cc(COc3ccc(NC(=O)C(C)C)cc3)nc12	-11.3%	-4.1%
39	COc1ccc(-c2cc(C(F)(F)F)n3nc(C(=O)Nc4cccc(Cl)c4Cl)cc3n2)cc1OC	-20.3%	1.3%
40	CCc1nn2c(=O)cc(COC(=O)Cc3ccccc3)nc2s1	-4.1%	15.6%

# Continuation:
No.	compound	HTT promoter inh	PMP22 txn
41	Cc1cc(NC(=O)c2ccc(NC(=O)CCS(=O)(=O)c3cccs3)cc2)ccc1Br	10.3%	?
42	CCOc1ccc(CNS(=O)(=O)c2c(C(=O)N3CCCCCC3)c(C)n(C)c2C)cc1OC	-2.8%	-11.2%
43	COc1ccc(NC(=O)c2sc3nc(-c4cc5ccc(OC)cc5oc4=O)[nH]c(=O)c3c2C)cc1	-0.9%	-4.5%
44	Cc1ccccc1NS(=O)(=O)c1ccc2[nH]cc(C(=O)N3CCCCC3)c(=O)c2c1	-11.8%	-2.3%
45	COC(=O)c1c(NC(=O)c2cc3ccccc3c(=O)o2)sc2c1CCCC2	0.9%	0.1%
46	CCc1ccc(N2CCn3c2nc2c3c(=O)n(CCc3ccccc3)c(=O)n2C)cc1	-14.5%	-6.7%
47	CC(C)(C)C(=O)Nc1ccc2nc(SCc3ccccc3)sc2c1	-15.7%	?
48	Cc1ccccc1Nc1nn2c(=O)c3ccc(C(=O)NCc4cccs4)cc3nc2s1	-32.2%	?
49	CN1CCN(C2=Nc3cc(Cl)ccc3Nc3ccccc32)CC1	?	/
50	COc1ccc(OC)c(NC(=O)Cn2c(=O)cc(C)c3c(C)nn(-c4cccc(Cl)c4C)c32)c1	-19.6%	?
51	COc1ccc(OC)c(NC(=O)c2c(NCc3cccs3)sc3c2CCCCC3)c1	-20.5%	?
52	COc1cccc(N2CC(NC(=O)C3CCCC3)CC2=O)c1 (stereo unspecified)	-14.5%	-8.7%
53	CSCCC(NC(=O)C1CCCCC1)C(=O)Nc1ccc(F)c(Cl)c1 (stereo unspecified)	?	-2.7%
54	N#C/C(=C\c1ccc(-c2cccc(Cl)c2)o1)C(=O)Nc1cccc(C(F)(F)F)c1	-16.2%	?
55	COc1ccc(NC(=O)C(NC(=O)/C=C\c2ccc3c(c2)OCO3)c2ccc(C)cc2)cc1 (stereo unspecified)	-23.2%	-5.6%
56	COc1ccccc1-c1nn(CCC(=O)Nc2cccc(C(C)=O)c2)c2nc(C)cc(C)c12	?	?
57	O=C(Nc1nnc(S(=O)(=O)N2CCOCC2)s1)c1cccc(Br)c1	-14.4%	8.1%
58	COCCNC(=O)c1ccc(-c2nc(CS(=O)(=O)c3ccccc3)c(C)o2)cc1	25.7%	-9.7%
59	COc1ccc(C(=O)Nc2nc(-c3nnn(-c4cc(OC)ccc4OC)c3C)ns2)cc1	?	8.2%
60	COc1ccc(N2CCN(C(=O)Cc3noc4ccc(C)cc34)CC2)cc1	-16.6%	?

# Remaining list, next part:
No.	compound	HTT promoter inh	PMP22 txn
61	COc1ccc(CNC(=O)c2cc3c(=O)[nH]c4ccccc4c3n2C)c(OC)c1	-10.9%	-7.3%
62	Cc1cccc(CS(=O)(=O)c2ncc(Cl)c(C(=O)NCc3ccccc3)n2)c1	?	?
63	Cc1c(Cl)cccc1NC(=O)c1noc2c1CCCC2	57.4%	-7.1%
64	CCCCN(Cc1ccccc1)S(=O)(=O)c1cc(Br)cc2c1N(C(=O)C1CC1)CC2	-24.9%	?
65	COc1ccc(Nc2ncnc3onc(-c4ccc(Cl)cc4)c23)cc1Cl	?	?
66	Cc1cccc(-c2nnc(SCC(=O)N3CCCCC3)o2)c1	71.3%[activator]	3.5%
67	CCN(CC)CCCNC(=O)c1cn(C)c2ccc(S(=O)(=O)N(C)C3CCCCC3)cc2c1=O	-5.7%	-3.2%
68	CN1CCN(C(c2cccc(Br)c2)c2sc3nc(-c4ccco4)nn3c2O)CC1 (stereo unspecified)	-1.4%	32.5%
69	COc1ccc(CC(=O)N2CCc3cc(OC)c(OC)cc3C2COc2ccc(OC)cc2)cc1 (stereo unspecified)	-29.7%	-0.3%
70	COc1ccc(N(C(=O)COc2ccc(Br)cc2)S(=O)(=O)c2ccc(C)cc2)cc1	?	-15.3%
71	COc1ccc(N2C(=O)C(CC(=O)Nc3ccc(Cl)cc3)N(Cc3ccc4c(c3)OCO4)C2=O)cc1 (stereo unspecified)	-27.1%	-13.4%
72	O=C(Nc1ccc(F)c(F)c1)c1cc(S(=O)(=O)NC2CCCC2)ccc1F	?	?
73	COC(=O)c1ccccc1NC(=O)c1cc(C)nc2c1c(C)nn2-c1ccc(C)cc1	-8.2%	3.6%
74	Cc1ccccc1CNC(=O)c1oc2c(c1C)-c1[nH]ncc1CC2	22.0%	-32.1%
75	Cc1ccccc1C(=O)NC(=O)Nc1ccc(-n2nc(C(F)(F)F)cc2C(F)(F)F)cc1	-6.4%	-11.4%
76	O=C(Nc1c(C(=O)Nc2ccccc2F)oc2ccccc12)c1cc2ccccc2o1	-9.7%	-43.3%
77	CCc1ccc(NC(=O)CC2C(=O)N(c3ccc(Cl)cc3)C(=O)N2C2CCCC2)cc1 (stereo unspecified)	?	?
78	Cc1ccc(S(=O)(=O)N(CC(O)Cn2c3ccccc3c3ccccc32)c2cccc(C(N)=O)c2)cc1 (stereo unspecified)	?	?
79	NS(=O)(=O)c1ccc2nc(NC(=O)COc3ccccc3)sc2c1	-6.3%	-1.4%
80	Cn1cc(-c2ccc3ncc(Cc4ccc5ncccc5c4)n3n2)cn1	-5.4%	/

# Other structures.
No.	compound	HTT promoter inh	PMP22 txn
81	Cc1ccccc1C(=O)Nc1nnc(S(=O)(=O)N(C)c2ccc(Cl)cc2)s1	?	?
82	COc1ccc(C)cc1NC(=O)COc1cc(=O)n(C)c2ccccc12	-6.9%	-11.6%
83	Cc1ccc(C(=O)N(c2ccc(C)cc2)S(=O)(=O)c2ccc(Cl)cc2)cc1	?	?
84	O=C(CCCCCN1C(=O)c2cccc3cccc(c23)C1=O)NO	176.1%[activator]	/
85	CCOC(=O)N1CCc2c(sc3c2c(=O)n(CCc2ccccc2)c(=O)n3Cc2ccc(F)cc2)C1	?	-27.6%
86	CC(NN)c1ccccc1 (stereo unspecified)	-1.9%[25.2 µM]	/
87	CCc1cccc(NC(=O)CSc2ncc3c(n2)-c2ccc(Cl)cc2N(Cc2ccccc2)S3(=O)=O)c1	-9.5%	-7.8%
88	CCCCCOc1c(Cl)cc(C(=O)N(Cc2ccc(C)o2)C2CCS(=O)(=O)C2)cc1Cl (stereo unspecified)	?	?
89	O=c1oc2ccc(F)cc2cc1-c1nc(-c2cccs2)no1	50.0%[activator]	-21.5%
90	Cc1cc(NC(=O)c2cc(-c3ccc(F)cc3)on2)nn1Cc1ccc(Cl)cc1	?	?
91	O=C(NCCc1ccc(Cl)cc1)C(=O)NCC(c1cccs1)S(=O)(=O)c1ccccc1 (stereo unspecified)	?	?
92	COc1ccc(CNC(=O)c2c(Nc3ccccc3C)sc(C(=O)c3ccccc3)c2N)cc1	?	?
93	COc1ccc(CCNC(=O)CCCCn2c(=O)c3ccccc3n(CC(=O)Nc3ccc(C)cc3C)c2=O)cc1OC	-6.0%	?
94	COc1ccc(-c2cc(C(=O)OC(C)C(=O)c3ccccc3)c3cccc(Cl)c3n2)cc1 (stereo unspecified)	12.5%	3.1%
95	COC(=O)c1ccccc1NC(=O)CSc1nnc2cc(C)c3cc(C)cc(C)c3n12	-21.5%	-19.3%
96	COc1ccc(S(=O)(=O)c2c(SC)nn(CC(=O)Nc3cccc(C)c3C)c2N)cc1	?	-28.3%
97	CCn1c(=O)c2sccc2n2c(CCCC(=O)Nc3ccc(Oc4ccccc4)cc3)nnc12	-16.8%	-0.7%
98	Cc1ccccc1Cn1c2ccccc2c2cnn(CC(=O)NC(C)CCc3ccccc3)c(=O)c21 (stereo unspecified)	1.7%	?
99	O=C(NCCc1ccccc1)c1cnc2sc(N3CCCC3)nn2c1=O	-26.3%	-16.7%

# Molecules listed so far that contain bromine, in the order listed:
No.	compound	HTT promoter inh	PMP22 txn
30	Cc1c(C(=O)N(Cc2ccc(N(C)C)cc2)Cc2ccco2)oc2cc(Br)ccc12	-11.7%	?
41	Cc1cc(NC(=O)c2ccc(NC(=O)CCS(=O)(=O)c3cccs3)cc2)ccc1Br	10.3%	?
57	O=C(Nc1nnc(S(=O)(=O)N2CCOCC2)s1)c1cccc(Br)c1	-14.4%	8.1%
64	CCCCN(Cc1ccccc1)S(=O)(=O)c1cc(Br)cc2c1N(C(=O)C1CC1)CC2	-24.9%	?
68	CN1CCN(C(c2cccc(Br)c2)c2sc3nc(-c4ccco4)nn3c2O)CC1 (stereo unspecified)	-1.4%	32.5%
70	COc1ccc(N(C(=O)COc2ccc(Br)cc2)S(=O)(=O)c2ccc(C)cc2)cc1	?	-15.3%
